# High-throughput results deposited in PubChem by several laboratories.
# B2AR ag = activates human beta-2 adrenergic receptor causing internalization. P07550. Am2.2-beta2AR cells, FAP receptor internalization, flow cytometry; reference of the scale not given here. response, % (no concentration beside the values). hit rate 0.43% among 340,000. AID 504454;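 active = response above a set limit, near 3 SD of response in nonfluorescent compounds, cut at about 42% in these data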;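 also: stock transfer was 100 nL into about 11 µL; a reference agonist was the positive control; negative values mostly stem from fluorescent compounds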
# Target sequence (P07550 whole entry, looked up): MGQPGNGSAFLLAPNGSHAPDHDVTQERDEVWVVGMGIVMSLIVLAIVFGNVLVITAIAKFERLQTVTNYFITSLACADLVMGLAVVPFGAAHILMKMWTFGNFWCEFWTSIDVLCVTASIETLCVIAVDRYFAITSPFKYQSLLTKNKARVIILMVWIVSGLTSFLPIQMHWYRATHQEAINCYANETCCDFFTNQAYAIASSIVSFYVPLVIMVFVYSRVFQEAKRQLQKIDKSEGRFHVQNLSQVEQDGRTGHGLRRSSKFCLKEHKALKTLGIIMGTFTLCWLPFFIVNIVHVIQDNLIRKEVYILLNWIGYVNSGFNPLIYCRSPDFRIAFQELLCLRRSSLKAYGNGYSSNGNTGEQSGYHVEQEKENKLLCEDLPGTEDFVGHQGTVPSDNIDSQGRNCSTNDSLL
# A1 inh = inhibitors of the anti-apoptotic protein A1, read as caspase activation | MEF A1-2A-BIM cells, Caspase-Glo 3/7 luminescence, 3 h; percent of clofoctol response, vehicle zero | caspase activation, % (test concentration not listed) | hit rate 0.066% among 330,000 | AID 2462;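 active = over half of replicate activation scores above 10%, or exactly half above 10 with the replicate mean above 10; inconclusive = replicate mean below 10 yet half the replicates above 10; inactive = over half of replicates below 10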;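 also: wells of about 30 µL received 50 nL stock; many hits fall short of the cut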
# RanGTP-Imp inh = inhibitors of RanGTP-importin-beta interaction, primary screen, biochemical, FRET, CFP-Ran, YFP-importin-beta, homogeneous | AID 2216 | hit rate 1.1% among 300,000 | inhibition, % (test concentration not listed) | cell-free CFP-Ran/YFP-importin-beta FRET ratio;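 active = most replicates above 15%; inconclusive = exactly half above 15%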;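 also: 0% = DMSO wells and 100% = Ran loaded with GDP instead of GTP; wells of about 40 µL received 100 nL stock; the first replicate is given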
# Calb FLC = C. albicans growth modulation with fluconazole | C. albicans CaCi-2 (fluconazole-resistant clinical isolate) + fluconazole, Alamar Blue growth, 48 h | AID 1979 | growth inhibition, % (test concentration not listed) | hit rate 0.57% among 300,000;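 active = most replicates above 75%; inconclusive = exactly half above 75%; inactive = most below 75%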;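 also: all wells also contain fluconazole at 8 µg/ml as a sub-toxic cotreatment; 0% = median of DMSO wells and 100% = median of geldanamycin control wells; wells of about 8 µL received 7.5 nL stock; the first replicate is given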
# T cruzi inh = blocks replication of Trypanosoma cruzi; T. cruzi beta-gal in NIH3T3, luminescence, 90 h; hit rate 1.4% among 300,000; inhibition, % (no concentration beside the values);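 active = mean inhibition across valid replicates above about 55%, limit read from the data; inconclusive = mean below that limit but half or more replicates reach it; inactive = mean below it, under half of replicates reach it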;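 also: signal also drops with host cell toxicity which is not excluded here; 0% = plate median of DMSO wells and 100% = zero luminescence signal; higher percent means less beta-gal luminescence so fewer parasites; stock transfer was 50 nL into about 50 µL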
# LANA-H2B inh = blocks KSHV LANA binding to histone H2A/H2B; inhibition, % (concentration not given with the values); cell-free LANA-H2A/H2B peptide, fluorescence polarization; hit rate 0.6% among 320,000; in the data active = inhibition mostly above about 10%, no sharp cut-off; inactive = mostly below about 6.7%;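 also: stock transfer was 7.5 nL into about 10 µL; 0% = median of vehicle wells and 100% = median of positive control wells; one replicate is shown; the record names a cut of 25% in any replicate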
# Beta cell apopt = blocks beta cell apoptosis; INS-1E cytokine-induced death, ATP luminescence, 48 h; percent of positive-control rescue, neutral wells zero; protection from apoptosis, % (test concentration not listed); hit rate 0.8% among 300,000;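 active = all replicates at 75% or more, or half of them and the mean; inconclusive = half reach 75% but not the mean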;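 also: 0% = cytokine-treated negative control wells and 100% = positive control rescue; higher means more ATP so stronger rescue from cytokine killing; wells of about 40 µL received 100 nL stock; the first replicate is given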
# UCH37 inh = inhibitors of human deubiquitinating enzyme UCH37 | Q9Y5K5 | purified proteasome/UCH37, Ub-AMC cleavage fluorescence | inhibition, % (test concentration not listed) | hit rate 0.33% among 330,000;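 active = mean of two replicates above 20%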;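 also: 0% = compound-free wells with enzyme and 100% = wells lacking proteasome; stock transfer was 100 nL into about 20 µL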
# Target sequence (Q9Y5K5 whole entry, looked up): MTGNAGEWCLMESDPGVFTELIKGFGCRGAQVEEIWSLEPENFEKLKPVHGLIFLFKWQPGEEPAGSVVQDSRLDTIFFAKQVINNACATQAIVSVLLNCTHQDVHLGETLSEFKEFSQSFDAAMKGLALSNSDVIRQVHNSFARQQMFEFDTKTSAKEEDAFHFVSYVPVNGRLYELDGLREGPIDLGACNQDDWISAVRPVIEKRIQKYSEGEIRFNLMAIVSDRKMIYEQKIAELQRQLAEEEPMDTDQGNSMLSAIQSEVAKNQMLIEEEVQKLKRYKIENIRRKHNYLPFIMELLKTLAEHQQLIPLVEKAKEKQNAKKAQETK
#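 Schedule: 30 min plus 25 min, room temperature / Material: human UCH37 within purified proteasomes / Technique: AMC fluorescence intensity at 355/460 nm / Buffer or medium: pH 7.4 Tris-HCl (50 mM) with ovalbumin, ATP-MgCl2, DTT / Controls: wells without proteasome as full block, compound-free enzyme plus substrate as uninhibited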
# Active calls of the source: *; i = inactive; u = inconclusive; x = no result given.
SMILES,B2AR ag,A1 inh,RanGTP-Imp inh,Calb FLC,T cruzi inh,LANA-H2B inh,Beta cell apopt,UCH37 inh
O=C(Nc1nnc(S(=O)(=O)N2CCCCC2)s1)c1ccccc1Br,3,1.0,u,-15,-8,-3.1,3,2.2
COc1ccc(/C=C2\CCCC(C(=O)C(F)(F)F)=C2O)cc1OC,x,-0.2,4.2,3,-5,-3.4,-4,-0.7
COc1cccc(OCC(O)CNC2CCCC2)c1 (configuration not stated),-10,0.7,-2.7,-4,7,-2.5,-1,5.0
O=C(c1ccc(-n2cccc2)cc1)N1CCN(Cc2ccccc2)CC1,-10,-0.4,x,2,-14,2.1,-11,-0.2
CNc1nc(C)c(C(C)(C)C)s1,-5,0.5,-3.9,-18,-11,5.6,-2,-1.0
CCCCn1nnnc1SCC(=O)N1CCOCC1,-5,0.4,1.4,4,2,-0.6,-8,3.0
CCCc1cc(=O)[nH]c(Nc2ccc(N3CCCCC3)cc2)n1,-2,-0.2,-2.2,u,6,-3.6,15,5.5
COC(=O)C1=C(C)N(CCCC(=O)O)C(=O)NC1c1cccc(Cl)c1Cl (configuration not stated),0,0.0,2.0,-7,0,3.5,-1,4.6
COCCCNc1nc2nonc2nc1N(C)CC1CCCN1C (configuration not stated),-11,0.5,-1.2,-1,-11,-1.7,5,9.0
COc1ccc(CCNC(=O)c2cc(-c3ccccc3)on2)cc1OC,1,-0.2,-0.1,-4,3,2.1,23,4.0
COc1ccc(-c2cc(C(=O)N3CCN(c4ccccc4)CC3)c3ccccc3n2)cc1,8,-0.9,0.5,8,-5,-0.7,5,-26
Cc1oc(-c2ccc(Cl)cc2)nc1CS(=O)CC(=O)NCCCN1CCCC(C)C1 (configuration not stated),-6,0.0,22,6,-24,-6.4,-3,5.9
Fc1ccc(-c2ccc(/C=N\n3cnnc3)o2)cc1Cl,-2,0.4,-0.5,21,-1,-4.6,0,x
O=C(NCCc1ccccc1F)c1cccc2cccnc12,-1,0.0,-2.2,-1,19,-6.8,-3,2.2
COc1cccc(C2C(C#N)=C(N)Oc3c2oc(CO)cc3=O)c1 (configuration not stated),0,-0.2,2.8,u,-39,-5.6,-1,3.7
Cn1c(SCC(=O)Nc2ccccc2F)nc2c(c1=O)SCC2,-9,-0.7,-0.4,-3,5,-7.5,1,5.5
Cc1c(CC(=O)N2CCN(C(=O)C3COc4ccccc4O3)CC2)c(=O)oc2cc(O)cc(O)c12 (configuration not stated),-3,1.3,5.3,2,3,-1.0,2,i
O=C(Nc1ccc(F)cc1)C1CCCN(S(=O)(=O)c2ccc3[nH]c(=O)ccc3c2)C1 (configuration not stated),5,0.6,1.3,-4,0,-6.5,2,-1.7
O=C(CC1c2ccccc2Oc2ccccc21)Nc1ccccc1F,-4,0.4,1.0,1,17,-4.1,9,6.5
O=C(c1ccc2n[nH]nc2c1)N1CCN(c2ccc(C(F)(F)F)cn2)CC1,6,0.9,x,x,x,-3.3,-1,3.2
O=C(CCCn1c(=S)[nH]c2cc3c(cc2c1=O)OCO3)N1CCN(C2CCCCC2)CC1,-9,0.0,6.6,-11,24,1.3,-12,2.6
Cc1cc(=O)n(CC(=O)O)c2ccccc12,1,0.1,5.9,9,1,-1.6,-5,2.5
COc1ccc(C(c2sc3nc(C)nn3c2O)N2CCCCC2)cc1 (configuration not stated),-3,0.5,6.3,-1,-4,-3.7,-7,2.2
CNC(=O)c1c(Cl)cnn1-c1ccc(C)cc1,3,1.6,-3.8,-6,-22,-4.2,-5,6.5
CCN(CC)C(=O)c1sc(NC(=O)c2ccoc2C)c(C(=O)OC)c1C,17,-0.2,1.0,3,21,-1.6,4,-1.8
NC(=S)N/N=C/c1ccccc1O,5,0.6,2.1,-40,7,-7.5,92*,x
CC1(C)Cc2noc(N)c2C(C)(C)N1OC(=O)c1ccccc1,15,0.1,3.2,x,-9,-15,-8,0.4
CC(C)NCC(O)COCCOc1ccc(Cl)cc1 (configuration not stated),-2,-0.3,u,-1,38,-2.9,-8,2.6
COc1ccc(-n2nc(C(=O)NCC(=O)Nc3cccc(NC(C)=O)c3)c3ccccc3c2=O)cc1,1,0.7,-7.2,2,-15,-6.2,-3,-3.7
Cc1nn(-c2cccc(Cl)c2)c2nc(-c3ccncc3)cc(C(=O)N3CCOCC3)c12,10,0.2,1.9,21,52,2.3,5,-20
Cc1ccc(OCCNC(=O)CCC(=O)N2CCOCC2)cc1,-2,0.0,x,-3,-7,12,3,2.6
Cc1ccc(S(=O)(=O)Cn2nnnc2C(c2ccc(F)cc2)N2CCC(C(N)=O)CC2)cc1 (configuration not stated),12,-0.1,-2.0,2,-2,9.8,x,1.9
N#Cc1ccsc1NC(=O)COC(=O)c1cc2ccccc2cc1O,0,-0.5,-1.4,39,-6,3.5,-4,1.3
O=C(N/N=C/c1cccc2ccccc12)c1cccs1,-5,-0.4,u,13,-4,-4.8,1,x
COc1ccc(NS(=O)(=O)c2cc(NC(=O)c3ccc(S(=O)(=O)N(C)C)cc3)ccc2N2CCOCC2)cc1,16,0.8,x,x,x,1.1,5,4.2
O=C(Nc1cccc(F)c1)C1CCN(S(=O)(=O)c2cnc[nH]2)CC1,-12,1.2,1.4,-6,-17,2.8,-5,0.4
COc1ccc(-c2nnc(SCc3ccccc3)n2N)cc1,3,-0.4,0.6,-26,11,-2.9,0,1.5
O=C(CCCn1c(SCC(=O)NC2CCCCC2)nc2ccccc2c1=O)NCC1CCCO1 (configuration not stated),-15,0.5,-2.6,-17,1,1.9,-7,x
CCOc1ccc(CC2S/C(=N/c3ccccn3)NC2=O)cc1 (configuration not stated),-11,-0.1,1.6,-3,-2,-11,12,2.1
CCOC(=O)N1CCN(c2ccc3nnnn3n2)CC1,4,0.5,1.8,18,-6,2.3,-1,3.2
O=C(NCC(=O)N1CCN(S(=O)(=O)c2ccccc2C(F)(F)F)CC1)c1sc2ccccc2c1Cl,-8,1.1,-4.3,x,3,4.9,3,x
CSc1nccc(N2CCN(c3ccc(F)cc3)CC2)n1,-10,1.0,-0.9,-4,-23,-1.7,8,-2.6
O=C(CCC(=O)N1CCOCC1)Nc1ccc(Cl)c(Cl)c1,0,0.2,1.6,2,-2,1.4,3,2.7
O=C(Nc1nnc(COc2ccc(Br)cc2)s1)c1ccco1,0,-0.5,1.1,-6,7,-4.5,1,-1.5
CC(NC(=O)/C=C/c1ccccc1)c1ccccc1 (configuration not stated),-1,-1.2,-0.5,-13,-24,-2.1,-8,3.7
CC(C)c1ccc(O)c(NC(=S)NC(=O)c2ccc3c(c2)OCO3)c1,2,-0.3,-2.9,-4,-18,4.5,5,7.6
CC(C)(C)c1cc(OS(C)(=O)=O)ccc1O,9,0.5,0.9,-6,4,4.4,-4,x
Cc1ccc(N(CC(=O)NC(C)C)C(=O)CCC(=O)Nc2nccs2)c(C)c1,-6,0.0,-3.0,-5,-5,0.2,-6,2.1
COc1ccc2nc(NC(=O)c3ccccc3-c3ccccc3C(=O)O)sc2c1,-5,1.9,8.3,22,14,-2.0,-9,4.8
Cc1nc2nc(SCc3ccccc3)nn2c(C)c1C,-19,1.4,x,x,x,3.3,-19,x
Cc1ccc(NC(=O)Nc2ccccc2)c(Br)c1,2,-1.5,-1.0,13,-8,0.4,9,-0.6
O=C(CCCC1=NS(=O)(=O)c2ccccc2N1)Nc1ccccc1,0,0.0,1.9,-3,-16,-0.8,-3,-1.1
Cc1cc(C(=O)CSC(C)c2nc3ccccc3c(=O)[nH]2)c(C)n1C (configuration not stated),0,0.8,0.0,-6,5,0.9,-9,3.0
CC(=O)c1ccc(-n2c(-c3cc(-c4ccco4)[nH]n3)n[nH]c2=S)cc1,-1,-0.6,-0.9,11,19,-0.3,2,-0.3
C=CCOC(=O)C(=O)/C=C/c1csc2ccccc12,0,1.2,2.3,8,-4,2.5,5,2.1
COc1ccc(-c2nnn(CC(=O)N(C3CCCC3)C(C)C(=O)NC3CCCC3)n2)cc1OC (configuration not stated),10,1.1,7.3,-16,13,0.1,-4,4.2
O=C(O)COc1ccccc1/C=N/NC(=O)CSc1nnc(SCc2ccc(Cl)cc2)s1,12,-1.4,4.4,-1,-8,3.2,-5,x
O=C(NCc1cccnc1)c1cc(Sc2ccccc2Cl)nc2ccccc12,-7,0.7,0.0,-15,4,4.7,-1,5.3
Cn1nc(C2CC2)cc1NC(=O)CC(CC(=O)O)c1ccccc1 (configuration not stated),6,-0.2,u,-19,-22,-4.1,-7,0.3
CC(=O)NCCOc1nc(N2CCCCC2)nc(N2CCCCC2)n1,-6,1.1,-3.6,-13,3,7.2,-6,3.0
# (further entries)
SMILES,B2AR ag,A1 inh,RanGTP-Imp inh,Calb FLC,T cruzi inh,LANA-H2B inh,Beta cell apopt,UCH37 inh
Cn1[nH]c(C(F)(F)F)c(C=NCc2ccc(Cl)cc2)c1=O,1,-0.4,-2.1,3,2,-2.1,1,5.9
COC(=O)C(Sc1nc(C)cc(C)c1C#N)c1ccccc1 (configuration not stated),6,0.4,9.4,7,2,-1.6,4,1.2
CCCCn1c(SCC(=O)Nc2ccc3c(c2)OCCO3)nnc1C(CC)N(C)C (configuration not stated),-2,0.6,x,x,x,-1.5,-6,0.3
CCSC1=C(C#N)C(c2cccs2)C(C(=O)OC)=C(C)N1 (configuration not stated),19,-1.5,3.0,15,15,-5.9,-4,-3.2
CCC(Sc1nc2n[nH]c(C)c2c(=N)n1-c1cccc(Cl)c1)C(=O)NCCOC (configuration not stated),8,-1.1,u,3,24,-1.6,14,3.3
CC1CCCCN1C(=O)CCC(=O)Nc1nnc(C(F)(F)F)s1 (configuration not stated),5,1.1,u,18,-8,2.5,-2,-0.4
Cn1c(=O)c2c(SCCN3CCOCC3)nc(C3CCCC3)nc2n(C)c1=O,-19,-0.1,2.6,7,24,3.0,10,3.1
O=C(Nc1ccc(S(=O)(=O)N2CCCC2)cc1)c1ccc(CN2CCOCC2)cc1,10,-0.5,-2.1,-7,-12,0.4,-6,4.8
Cc1c(Cc2ccccc2)sc(NC(=O)/C=C/c2cccc3ccccc23)c1C(N)=O,0,0.1,-1.7,-6,-25,-0.2,12,-6.5
COC(=O)COc1ccc(S(=O)(=O)NCCC2=CCCCC2)cc1,0,0.6,-4.4,11,-3,1.2,-6,0.4
Cc1ccc(NC(=O)Nc2ccc3c(c2)nc(C)n3C)cc1C,x,-5.5,u,6,15,1.1,1,6.2
COc1ccc(NC(=O)CNc2ccccc2N2CCCC2=O)cc1S(=O)(=O)N1CCOCC1,-3,-1.7,x,x,x,2.4,-5,3.4
Cc1ccc(C(=O)C[n+]2cc(Br)cc(Br)c2)cc1,9,1.2,2.3,-5,2,-1.6,-2,-0.4
COc1ccc(OC)c(S(=O)(=O)N2CCN(CC(O)COc3ccc(C#N)cc3)CC2)c1 (configuration not stated),13,0.0,-0.6,-28,0,4.2,4,4.4
